# Ecoli rRNA inh: selective bacterial rRNA inhibition in E. coli. E. coli WT GFP vs humanized-ribosome RFP mutants, fluorescence, 24 h; hits give low values; DMSO median 0, no signal -100. GFP signal change (wild-type ribosome), % (test concentration not listed). 350,000 tested, 1.6% active. AID 720706;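 active = significant combined selectivity score with lowered wild-type GFP, culture density cut under 30%, mutant RFP and density less affected; inactive = any of these conditions unmet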; also: one replicate is shown; some compounds called inactive have numbers as strong as hits
# FGF22 binding: shifts melting point of recombinant human FGF22; Q9HCT0; recombinant FGF22 thermal shift, SYPRO orange fluorescence; percent of sucrose octasulfate shift, DMSO zero; calls only at 9.99 µM; 340,000 tested, 1.5% active;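 active = melting point raised past a set limit in the mean and every replicate; three in four hits are not shown here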
# Target sequence (Q9HCT0 whole entry, looked up): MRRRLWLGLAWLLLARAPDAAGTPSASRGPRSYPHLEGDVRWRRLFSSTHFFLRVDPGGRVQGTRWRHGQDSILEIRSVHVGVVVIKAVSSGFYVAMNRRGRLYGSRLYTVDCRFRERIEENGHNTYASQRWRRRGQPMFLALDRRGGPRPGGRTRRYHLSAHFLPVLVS
# Ecoli rRNA inh OD600: recorded beside Ecoli rRNA inh, whose call it bears; OD600 change, %; measured here: OD600 growth;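 optical density of the mix in the first replicate; 0 = DMSO median and -100 = no signal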
# Ecoli rRNA inh RFP: also measured in Ecoli rRNA inh; calls as there; RFP signal change, %; measured here: RFP humanized mutant strains;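 first replicate; 0 = DMSO median and -100 = no signal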
# Active calls of the source: *; i = inactive; + = active, no number. This is a subset; count on the stated rates, not on these rows.
SMILES,Ecoli rRNA inh,Ecoli rRNA inh OD600,Ecoli rRNA inh RFP,FGF22 binding
C[C@H]1CN([C@@H](C)CO)C(=O)c2cccc(NS(=O)(=O)c3ccc(Cl)cc3)c2O[C@@H]1CN(C)S(=O)(=O)c1cccs1,-4,-8,0.7,i
O=C(CN1CCOCC1)N1CCCCN2[C@H](CO)[C@H](c3ccc(/C=C/c4ccccc4)cc3)[C@H]2C1,-1,-4,2.6,i
CNC[C@H]1Oc2ccc(NC(=O)Cn3cnnn3)cc2C(=O)N([C@@H](C)CO)C[C@H]1C,3,8,-3.5,i
CN1[C@H](CO)[C@@H]2c3ccccc3N(C(=O)c3ccc(F)cc3)C[C@@H]21,5,3,-1.3,i
CC(C)NC(=O)N(C)C[C@@H]1Oc2ccc(NC(=O)CCN3CCOCC3)cc2CC(=O)N([C@H](C)CO)C[C@H]1C,4,10,-0.4,i
Cc1noc(C)c1NC(=O)Nc1cccc2c1O[C@@H](CN(C)C)[C@H](C)CN([C@@H](C)CO)C2=O,1,3,-0.3,i
COc1cccc(C#Cc2cnc3c(c2)C(=O)N([C@H](C)CO)C[C@H](C)[C@H](CN(C)C(=O)C2CCOCC2)O3)c1,4,4,-1.5,i
C[C@@H]1CN([C@@H](C)CO)C(=O)c2cc(C3=CCCC3)cnc2O[C@@H]1CN(C)S(C)(=O)=O,1,-2,-3.8,i
O=C(c1cccc(F)c1)N1CC2(C1)[C@H](c1ccccc1)[C@H](CO)N2C(=O)C1CCOCC1,2,6,0.4,i
N#C[C@@H]1[C@H](c2ccc(C#Cc3ccccc3F)cc2)[C@H](CO)N1C(=O)C1CCCCC1,1,1,0.5,i
CO[C@H]1CN(C)C(=O)c2cc(NS(=O)(=O)CC(F)(F)F)ccc2OC[C@@H](C)N(C)C[C@H]1C,0,-4,-0.5,i
CO[C@H]1CN(C)C(=O)c2ccc(NC(C)=O)cc2OC[C@H](C)N(C(=O)c2cccnc2)C[C@@H]1C,3,6,0.8,i
COCC(=O)N(C)C[C@H]1[C@H](c2ccccc2)[C@H](CO)N1C(=O)Cc1ccncc1,-1,2,3.1,i
O=C(Nc1cccc(Cl)c1)N[C@H]1CC[C@H](CCNC(=O)C2CCCCC2)O[C@H]1CO,-4,-3,0.6,i
COc1cc(-n2c(C)cc(O)cc2=O)ccc1Cl,12,16,0.6,i
COc1ccc(S(=O)(=O)N(C)C[C@@H]2OCCCC[C@@H](C)Oc3ccc(NC(=O)Nc4ccc(F)cc4)cc3C(=O)N([C@H](C)CO)C[C@@H]2C)cc1,-1,6,-2.3,i
Cc1ccc(S(=O)(=O)N(C)C[C@H]2Oc3ccc(NC(=O)CCN4CCOCC4)cc3C(=O)N([C@H](C)CO)C[C@H]2C)cc1,2,9,1.3,i
C[C@@H]1CN([C@@H](C)CO)C(=O)c2cc(NC(=O)Nc3ccc(F)cc3)ccc2O[C@@H](C)CCCCO[C@@H]1CN(C)C(=O)c1ccccc1,-2,-7,0.2,i
CO[C@@H](CN(C)S(=O)(=O)c1cccc(Cl)c1)[C@@H](C)CN([C@H](C)CO)S(=O)(=O)c1cccc(Cl)c1,-8,-44,30,+
Cc1noc(C)c1NC(=O)Nc1ccc2c(c1)CC(=O)N([C@H](C)CO)C[C@H](C)[C@H](CN(C)Cc1ccccc1)O2,3,8,-1.5,i
COC(=O)[C@H]1[C@H](CO)[C@H]2Cn3c(ccc(-c4ccccc4F)c3=O)[C@H]2N1C(=O)c1cnccn1,3,10,-1.6,i
CCC(=O)N1[C@@H]2CN(C(=O)Nc3ccc(Cl)cc3)c3ccccc3[C@@H]2[C@@H]1CO,-54,-72,-7.1,i
COc1ccc(S(=O)(=O)N(C)C[C@H]2OCCCC[C@H](C)Oc3ccc(NC(=O)C4CCCCC4)cc3C(=O)N([C@H](C)CO)C[C@H]2C)cc1,0,4,0.6,i
C[C@@H]1CN([C@@H](C)CO)C(=O)c2cc(NC(=O)CCCCCC(=O)Nc3ccccc3N)ccc2O[C@H]1CN(C)S(=O)(=O)c1cn(C)cn1,4,7,0.5,i
CCC(=O)N1CC2(CCN(Cc3ccc(F)cc3)CC2)c2c(n(C)c3cc(OC)ccc23)[C@H]1CO,-2,8,1.1,i
# (continued)
SMILES,Ecoli rRNA inh,Ecoli rRNA inh OD600,Ecoli rRNA inh RFP,FGF22 binding
CC(C)CC#Cc1cnc2c(c1)C(=O)N([C@@H](C)CO)C[C@@H](C)[C@H](CN(C)Cc1ccccc1)O2,7,0,4.6,i
COCC(=O)N1CCCCN2[C@H](C1)[C@@H](c1ccc(-c3ccccc3)cc1)[C@@H]2CO,3,-6,0.0,i
CC(C)C#Cc1cnc2c(c1)C(=O)N([C@@H](C)CO)C[C@H](C)[C@@H](CN(C)C(=O)Nc1cccc(F)c1)O2,-5,-4,3.2,i
CCC(=O)Nc1ccc2c(c1)OC[C@H](C)N(Cc1ccncc1)C[C@@H](C)[C@H](OC)CN(C)C2=O,1,-2,-0.5,i
CO[C@H]1CN(C)C(=O)c2cc(NS(C)(=O)=O)ccc2OC[C@@H](C)N(CC2CC2)C[C@@H]1C,4,4,-1.6,i
C[C@@H]1CN([C@@H](C)CO)C(=O)Cc2cc(NC(=O)NC3CCCCC3)ccc2O[C@@H]1CN(C)S(=O)(=O)c1cccs1,-1,-7,2.8,i
C[C@H]1CN([C@@H](C)CO)C(=O)CCCn2nncc2CO[C@H]1CN(C)Cc1ccc(-c2ccccc2)cc1,-4,-9,6.4,i
CO[C@@H]1CN(C)C(=O)c2ccc(NC(=O)C3CC3)cc2OC[C@@H](C)N(C(=O)c2ccncc2)C[C@@H]1C,1,1,-0.6,i
COc1ccc(NC(=O)Nc2ccc3c(c2)C(=O)N([C@H](C)CO)C[C@@H](C)[C@H](CN(C)CC2CCCCC2)OCCCC[C@@H](C)O3)cc1,2,-1,2.6,i
O=C(NCC[C@@H]1CC[C@H](NC(=O)c2cnccn2)[C@H](CO)O1)Nc1ccc(F)cc1,0,5,1.3,+
CCN(C[C@H]1N[C@@H](CO)[C@@H]1c1ccc(-c2ccccc2)cc1)C(=O)COC,0,-2,3.2,i
COc1ccc(CN2[C@H](CO)[C@@H]3c4ccccc4NC[C@@H]32)cc1,0,6,-1.2,i
CCCCCCCCN1C(=O)[C@@H](CC(=O)NCc2ccccc2)C[C@@]2(C(=O)OC)C1=C[C@H](C(C)(C)C)O[C@@H]2C,14,8,-1.1,i
COc1ccc(CN2[C@H](CO)[C@@H]3c4ccccc4N(C(=O)c4ccccc4)C[C@@H]32)cc1,-6,-25,4.6,i
C[C@H]1CN([C@@H](C)CO)S(=O)(=O)c2ccc(C3=CCCCC3)cc2O[C@H]1CN(C)C(=O)c1ccncc1,0,-11,-0.4,i
COc1ccc(CN(C)C[C@H]2OCCCC[C@H](C)Oc3ccc(NC(=O)Nc4ccccc4)cc3C(=O)N([C@H](C)CO)C[C@H]2C)cc1,-4,-38,31,i
C[C@@H]1CCCCO[C@H](CN(C)Cc2ccc(C(=O)O)cc2)[C@@H](C)CN([C@@H](C)CO)C(=O)c2cc(NC(=O)NC3CCCCC3)ccc2O1,0,6,-0.7,i
C[C@H]1CN([C@@H](C)CO)C(=O)c2cc(-c3ccc(C(=O)N(C)C)cc3)cnc2O[C@@H]1CN(C)C(=O)C1CC1,7,9,-1.8,i
CCC(=O)N[C@@H]1CC[C@@H](CCNC(=O)Nc2ccc(F)cc2)O[C@H]1CO,2,10,-0.4,i
COc1ccc2c3c(n(C)c2c1)[C@H](CO)N(CC1CCOCC1)CC31CCN(Cc2nccs2)CC1,3,2,3.9,i
C[C@@H]1CCCCO[C@@H](CN(C)C(=O)c2ccccc2)[C@@H](C)CN([C@H](C)CO)C(=O)c2cc(NC(=O)CCCN(C)C)ccc2O1,5,10,-2.9,i
Cc1ccc(S(=O)(=O)N(C)C[C@@H]2Oc3c(NS(C)(=O)=O)cccc3C(=O)N([C@@H](C)CO)C[C@H]2C)cc1,-3,0,-2.0,i
C[C@H]1CN([C@@H](C)CO)C(=O)c2cc(-c3ccccc3F)cnc2O[C@H]1CN(C)C(=O)CN(C)C,1,5,-7.4,i
O=C(Nc1ccc(Cl)c(Cl)c1)N[C@@H]1CC[C@@H](CCn2cc(C3CCCC3)nn2)O[C@@H]1CO,-61,-79,-6.4,i
CC(C)NC(=O)N(C)C[C@H]1OCCCC[C@@H](C)Oc2ccc(NC(=O)Nc3ccc(F)cc3)cc2C(=O)N([C@H](C)CO)C[C@@H]1C,-2,-1,-2.5,i

# A run of entries of the results above, for reference:
SMILES,Ecoli rRNA inh,Ecoli rRNA inh OD600,Ecoli rRNA inh RFP,FGF22 binding
CC(C)CC#Cc1cnc2c(c1)C(=O)N([C@@H](C)CO)C[C@@H](C)[C@H](CN(C)Cc1ccccc1)O2,7,0,4.6,i
COCC(=O)N1CCCCN2[C@H](C1)[C@@H](c1ccc(-c3ccccc3)cc1)[C@@H]2CO,3,-6,0.0,i
CC(C)C#Cc1cnc2c(c1)C(=O)N([C@@H](C)CO)C[C@H](C)[C@@H](CN(C)C(=O)Nc1cccc(F)c1)O2,-5,-4,3.2,i
CCC(=O)Nc1ccc2c(c1)OC[C@H](C)N(Cc1ccncc1)C[C@@H](C)[C@H](OC)CN(C)C2=O,1,-2,-0.5,i
CO[C@H]1CN(C)C(=O)c2cc(NS(C)(=O)=O)ccc2OC[C@@H](C)N(CC2CC2)C[C@@H]1C,4,4,-1.6,i
C[C@@H]1CN([C@@H](C)CO)C(=O)Cc2cc(NC(=O)NC3CCCCC3)ccc2O[C@@H]1CN(C)S(=O)(=O)c1cccs1,-1,-7,2.8,i
C[C@H]1CN([C@@H](C)CO)C(=O)CCCn2nncc2CO[C@H]1CN(C)Cc1ccc(-c2ccccc2)cc1,-4,-9,6.4,i
CO[C@@H]1CN(C)C(=O)c2ccc(NC(=O)C3CC3)cc2OC[C@@H](C)N(C(=O)c2ccncc2)C[C@@H]1C,1,1,-0.6,i
COc1ccc(NC(=O)Nc2ccc3c(c2)C(=O)N([C@H](C)CO)C[C@@H](C)[C@H](CN(C)CC2CCCCC2)OCCCC[C@@H](C)O3)cc1,2,-1,2.6,i
O=C(NCC[C@@H]1CC[C@H](NC(=O)c2cnccn2)[C@H](CO)O1)Nc1ccc(F)cc1,0,5,1.3,+

# Continuation:
SMILES,Ecoli rRNA inh,Ecoli rRNA inh OD600,Ecoli rRNA inh RFP,FGF22 binding
COCC(=O)N1CC2(C1)[C@H](c1ccc(-c3cccc(F)c3)cc1)[C@@H](CO)N2C(=O)C1CC1,-2,-2,2.0,i
COc1ccc(NC(=O)N(C)C[C@H]2Oc3c(cccc3N(C)C)C(=O)N([C@H](C)CO)C[C@@H]2C)cc1,-1,-5,-1.2,i
O=C(C1CCC1)N1CC(=O)N2[C@H](CO)[C@H](c3ccc(Br)cc3)[C@H]2C1,4,11,1.3,i
C[C@H](O)C#Cc1cnc2c(c1)C(=O)N([C@H](C)CO)C[C@@H](C)[C@H](CN(C)C(=O)c1ccccc1F)O2,3,8,-0.5,i
O=C(Nc1cccc(F)c1)N1CCCCN2[C@H](CO)[C@@H](c3ccc(C#Cc4ccccc4)cc3)[C@H]2C1,-57,-70,-9.5,i
COc1cccc(S(=O)(=O)N[C@H]2CC[C@H](CC(=O)NCc3ccccc3)O[C@@H]2CO)c1,0,8,2.2,i
CC(C)NC(=O)N(C)C[C@H]1Oc2cc(C#C[C@@H](C)O)ccc2S(=O)(=O)N([C@@H](C)CO)C[C@H]1C,1,4,-2.2,i
COCC#Cc1cnc2c(c1)C(=O)N([C@H](C)CO)C[C@H](C)[C@H](CN(C)Cc1ccc(F)cc1)O2,1,-1,-2.0,i
C[C@@H]1CN([C@H](C)CO)C(=O)Cc2cc(NC(=O)CCN3CCOCC3)ccc2O[C@H]1CN(C)Cc1ccc(Cl)c(Cl)c1,-1,8,-1.5,i
COc1ccc(NC(=O)Nc2ccc3c(c2)CC(=O)N([C@@H](C)CO)C[C@@H](C)[C@H](CN(C)C(=O)Nc2c(C)noc2C)O3)cc1,4,10,-2.4,i
CCCN1[C@@H]2c3ccc(-c4cccc(F)c4)c(=O)n3C[C@@H]2[C@@H](CO)[C@@H]1C(=O)N[C@@H](C)c1ccccc1,-42,-65,29,i
O=C(C[C@@H]1C=C[C@@H](NC(=O)c2ccccn2)[C@@H](CO)O1)NCc1cccc(F)c1,2,4,0.4,i
C[C@@H]1CCCCO[C@@H](CN(C)Cc2ccc(C(=O)O)cc2)[C@@H](C)CN([C@H](C)CO)C(=O)c2cc(NC(=O)Nc3ccccc3)ccc2O1,-3,-3,-4.2,i
CO[C@H](C(=O)N(C)C[C@@H]1OCc2ccccc2-c2c(n(C)c3ccccc23)C(=O)N([C@@H](C)CO)C[C@@H]1C)c1ccccc1,-6,-10,3.3,i
C[C@@H]1CN([C@H](C)CO)C(=O)c2cc(C3=CCCC3)cnc2O[C@@H]1CN(C)C(=O)CN(C)C,2,4,1.2,i
CCS(=O)(=O)N1CC2(C1)[C@@H](c1ccccc1)[C@@H](CO)N2C(=O)C1CC1,2,17,-0.8,i
C[C@@H]1CN([C@H](C)CO)S(=O)(=O)c2ccc(C3=CCCCC3)cc2O[C@@H]1CN(C)C(=O)Cc1ccncc1,-4,-8,2.6,i
C[C@@H]1CN([C@@H](C)CO)C(=O)c2cc(NC(=O)Cc3ccccc3)ccc2O[C@@H]1CN(C)Cc1ccccc1,1,0,1.6,i
CCCNC(=O)[C@H]1[C@H](CO)[C@H]2Cn3c(ccc(C4=CCCC4)c3=O)[C@H]2N1CCC,0,-12,2.0,i
CC(C)NC(=O)N[C@H]1C=C[C@@H](CC(=O)NCCN2CCCC2)O[C@@H]1CO,1,-1,-0.8,i
O=C(C[C@H]1CC[C@H]2[C@@H](COC[C@@H](O)CN2C(=O)Nc2cc(Cl)cc(Cl)c2)O1)N1CCOCC1,-27*,-18*,-2.2*,i

# Screening results from PubChem BioAssay.
